# From PubChem BioAssay
# GIV Gai3 FP = inhibitors of GIV GBA-motif binding to rat Galpha-i3. P08753. Galpha-i3/FITC-GIV peptide fluorescence polarization, 90 min; hits give low values; scaled: aluminum fluoride 0%, vehicle 100%. percent of control (FP), % (test concentration not listed). 0.42% of 210,000 active. AID 1224905;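 active = replicate mean at 85% of control or lower, very high polarization wells dropped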;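 also: wells of about 15 µL received 100 nL stock; the first replicate is given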
# Target sequence (P08753 whole entry, looked up): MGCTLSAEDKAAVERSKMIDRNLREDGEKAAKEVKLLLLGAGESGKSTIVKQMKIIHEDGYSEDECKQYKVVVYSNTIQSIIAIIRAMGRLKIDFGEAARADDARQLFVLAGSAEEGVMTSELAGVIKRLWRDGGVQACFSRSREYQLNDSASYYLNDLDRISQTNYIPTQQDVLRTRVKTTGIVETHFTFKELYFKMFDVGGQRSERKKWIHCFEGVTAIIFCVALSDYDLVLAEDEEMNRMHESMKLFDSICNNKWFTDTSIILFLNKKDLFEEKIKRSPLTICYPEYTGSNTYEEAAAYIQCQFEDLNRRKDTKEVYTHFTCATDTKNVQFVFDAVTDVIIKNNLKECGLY
# The depositor's hits bear a star. Not all compounds are listed. The share of hits here may be higher or lower than overall.
SMILES,GIV Gai3 FP
Cn1c2c(c(=O)n(C)c1=O)C(c1ccccc1Cl)C1=C(N2)c2ccccc2C1=O (configuration not stated),116.6
Cc1ccccc1-c1csc(SCc2noc(CCC(=O)Nc3nccs3)n2)n1,103.3
CCn1nnc2cc(-c3noc(CN4C(=O)COc5ccccc54)n3)ccc21,99.7
COc1cc(C2N(S(=O)(=O)c3ccccc3)CCN2S(=O)(=O)c2ccc(C)cc2)ccc1O (configuration not stated),109.4
CC(=O)c1cccc(N2C(=O)/C(=C/c3ccc(-c4cc(Cl)ccc4Cl)o3)C=C2c2ccccc2)c1,131.6
CC1(c2ccccc2)CC(O)CC(c2ccccc2)N1 (configuration not stated),118.3
COc1cc(-n2c(C)nc3cc(C(=O)NCCc4ccccc4)ccc32)cc(OC)c1OC,106.7
c1ccc(CN2CCN(c3nc(NCc4ccco4)c4ccccc4n3)CC2)cc1,102.6
CCn1c(C2CCN(S(=O)(=O)c3ccc(C(C)C)cc3)C2)nc2cccnc21 (configuration not stated),101.2
NC(=O)c1cc(NC(=O)c2ccc3c(c2)OCCCO3)ccc1N1CCCC1,110.5
COc1cccc(NS(=O)(=O)c2cc(C(=O)N3CCCCC3)ccc2NCCc2ccc(Cl)cc2)c1,121.0
COc1ccc(-n2c(=S)[nH]c3cc(C(=O)NCCc4ccc(OC)c(OC)c4)ccc3c2=O)c(OC)c1,116.3
Cc1ccc2oc(-c3noc(CNC(=O)Cc4ccccc4)n3)c(C)c2c1,99.1
O=C(c1ccco1)N1CCN(S(=O)(=O)c2ccc3c(c2)Cc2cc(S(=O)(=O)N4CCN(C(=O)c5ccco5)CC4)ccc2-3)CC1,107.6
O=C(CSc1nc2cc(C(=O)NCC3CCCO3)ccc2c(=O)n1Cc1ccco1)Nc1ccccc1Cl (configuration not stated),105.1
CCOC(=O)c1sc2nc(SCC(=O)NCc3ccco3)n(Cc3ccccc3Cl)c(=O)c2c1C,105.9
O=c1oc2ccccc2cc1-c1nc(-c2ccc(Br)cc2)cs1,116.9
CCCc1cc(C2CCCN2C(=O)NCCC(=O)OCC)no1 (configuration not stated),108.6
O=C(NCc1ccc(F)cc1)c1ccc(-c2cccnc2)cc1,100.2
COc1cccc(C2C(C#N)=C(N)OC3=C2C(=O)CCC3)c1OC(=O)N1CCOCC1 (configuration not stated),111.7
O=C(Nc1ccc(Br)cc1)/C(=C/c1ccc2c(c1)OCO2)NC(=O)c1ccc(Br)cc1,103.9
CCCc1cc(C2CCCN2C(=O)Nc2ccc(Br)cc2)no1 (configuration not stated),104.9
Cc1ccc(N2C(=O)/C(=C/c3ccc(-c4ccc([N+](=O)[O-])cc4)o3)C=C2c2ccccc2)cc1,114.9
Cc1nn(-c2nc3ccccc3o2)c(C)c1Sc1nnc(N)s1,100.8
O=C(N1CCOCC1)N1c2ccccc2C=Cc2ccccc21,117.1

# Another view of part of the listing above.
SMILES | GIV Gai3 FP
Cn1c2c(c(=O)n(C)c1=O)C(c1ccccc1Cl)C1=C(N2)c2ccccc2C1=O (configuration not stated) | 116.6
Cc1ccccc1-c1csc(SCc2noc(CCC(=O)Nc3nccs3)n2)n1 | 103.3
CCn1nnc2cc(-c3noc(CN4C(=O)COc5ccccc54)n3)ccc21 | 99.7
COc1cc(C2N(S(=O)(=O)c3ccccc3)CCN2S(=O)(=O)c2ccc(C)cc2)ccc1O (configuration not stated) | 109.4
CC(=O)c1cccc(N2C(=O)/C(=C/c3ccc(-c4cc(Cl)ccc4Cl)o3)C=C2c2ccccc2)c1 | 131.6

# The listing picks up with the seven entries that preceded the break.
SMILES,GIV Gai3 FP
O=C(NCc1ccc(F)cc1)c1ccc(-c2cccnc2)cc1,100.2
COc1cccc(C2C(C#N)=C(N)OC3=C2C(=O)CCC3)c1OC(=O)N1CCOCC1 (configuration not stated),111.7
O=C(Nc1ccc(Br)cc1)/C(=C/c1ccc2c(c1)OCO2)NC(=O)c1ccc(Br)cc1,103.9
CCCc1cc(C2CCCN2C(=O)Nc2ccc(Br)cc2)no1 (configuration not stated),104.9
Cc1ccc(N2C(=O)/C(=C/c3ccc(-c4ccc([N+](=O)[O-])cc4)o3)C=C2c2ccccc2)cc1,114.9
Cc1nn(-c2nc3ccccc3o2)c(C)c1Sc1nnc(N)s1,100.8
O=C(N1CCOCC1)N1c2ccccc2C=Cc2ccccc21,117.1
Cc1nn(-c2nc3ccccc3n2C)c2c1C(c1cc(Br)ccc1F)CC(=O)N2 (configuration not stated),104.3
COc1ccc(C2C=C(Nc3ccccc3)C(=O)N2c2ccccc2)c(OC)c1 (configuration not stated),108.9
CCOC(=O)C1=C(C)N=c2s/c(=C/c3cccc([N+](=O)[O-])c3O)c(=O)n2C1c1cc(OC)ccc1OC (configuration not stated),105.8
O=C(Nc1ccc(Br)cc1F)c1nc(N2CCOCC2)c2oc3ccccc3c2n1,106.7
c1ccc(-c2nnc(-c3ccccn3)nc2-c2ccccc2)cc1,107.3
CCCCOc1ccc(C2C=C(Nc3ccccc3)C(=O)N2c2ccccc2)cc1 (configuration not stated),113.4
O=C(NCc1ccc(F)cc1)c1cc(-c2ccccn2)nc2ccc(S(=O)(=O)N3CCOCC3)cc12,100.1
CCOC(=O)c1[nH]c(C)c(CN(Cc2ccc(OC)cc2)C(=O)c2cc3ccc(OC)cc3[nH]2)c1C,109.8
CCc1nc2sc(C(C)C)nn2c1S(=O)(=O)NC1CCCC1,103.1
Cc1cc(C)n(-c2cc(NCc3cccc(Cl)c3)ncn2)n1,105.0
CC(=O)c1cc2c(cc1NC(=O)c1cc3nc(-c4cccs4)cc(C(F)(F)F)n3n1)OCO2,104.5
CCc1ccc(C2=NN(c3ccccc3)C3(SC(C(C)=O)=NN3c3ccccc3[N+](=O)[O-])c3ccccc32)cc1 (configuration not stated),104.8
O=C(Nc1ccc(C(=O)N2CCC(C(=O)NCC3CCCO3)CC2)cc1)c1ccc(Cl)cc1 (configuration not stated),114.0
Cc1ccc2nsnc2c1S(=O)(=O)N1CCN(C(=O)C2CCCO2)CC1 (configuration not stated),106.5
COc1ccc(NC(=O)Nc2ccccc2CCc2nc3ccccc3[nH]2)cc1OC,96.7
CC(=O)[C@@H]1[C@@H](c2ccc(Br)cc2)C(C#N)(C#N)[C@H]2C=Cc3ccccc3N12,117.4
COc1ccc(C(c2c(C)n(C)n(-c3ccccc3)c2=O)c2c(C)n(C)n(-c3ccccc3)c2=O)cc1,118.3
COc1ccc(CCNC(=O)CCn2c(SCC(=O)NCCC(C)C)nc3ccccc3c2=O)cc1OC,117.8
CCOC(=O)C1=C(C)N=c2s/c(=C/c3cccn3-c3ccc([N+](=O)[O-])cc3)c(=O)n2C1c1cccc(OC)c1 (configuration not stated),116.5
O=C(c1ccc(Cn2c(=S)[nH]c3ccc(Br)cc3c2=O)cc1)N1CCN(c2ncccn2)CC1,115.6
O=C(NCC1CCCO1)c1nc(-c2ccc(S(=O)(=O)N3CCCCC3)cc2)no1 (configuration not stated),98.2
COc1ccc(-c2cc3cc(OC)c(OC)cc3c(Cc3ccc(OC)c(OC)c3)n2)cc1,119.9
CC(C)n1c(SCc2nc(-c3cccc(Cl)c3)no2)nc2cc3c(cc2c1=O)OCO3,100.8
O=S(=O)(c1ccc(F)c(Cl)c1)N1CCCN(c2nc3cccnc3s2)CC1,100.7
Cc1cccc(-c2nc3ccc(C(=O)N4CCN(c5ncccn5)CC4)cc3nc2-c2cccc(C)c2)c1,100.2
# The listing continues:
SMILES,GIV Gai3 FP
CCOC(=O)c1[nH]c(C)c(CN(C(=O)C(C)C)C2CCCCC2)c1C,105.3
COc1ccc(OC)c(NC(=O)Nc2ccc3c(c2)N(C(=O)c2ccc(C)cc2)CC3)c1,109.9
CCOC(=O)N1CCN(C(=O)c2ccc(Cn3c(=S)[nH]c4ccc(Br)cc4c3=O)cc2)CC1,111.6
O=C(O)c1ccc(-c2ccc(/C=C3\NC(=O)N(Cc4ccc(Cl)cc4)C3=O)o2)cc1Cl,111.1
CC(=O)NC1C(OCc2cccc(Br)c2)OC(COC(C)=O)C(OC(C)=O)C1OC(C)=O (configuration not stated),99.9
O=S(=O)(Nc1ccc(Cn2cncn2)cc1)c1ccc2c(c1)CCCC2,106.0
CC(=O)C1=NN(c2cccc(Cl)c2C)C2(S1)SC(c1ccc(C)cc1)(c1ccc(C)cc1)c1ccccc12 (configuration not stated),108.8
COc1cc(C(=O)N2c3ccccc3-c3c(ssc3=S)C2(C)C)cc(OC)c1OC,114.1
CCn1cc(CCN2CCN(S(=O)(=O)c3ccc4c(c3)CCC4)CC2)c2cccnc21,108.5
Cc1c(NC(=O)OCCSc2nc(N(C)C)nc(N(C)C)n2)sc(=S)n1C,107.9
CCOC(=O)c1[nH]c(C)c(CCC(=O)N2CCCC(C(=O)N3CCCCC3)C2)c1C (configuration not stated),102.7
Cc1ccc(NC(=O)Cn2cnc3sc(C(=O)N4CCN(c5ccc(F)cc5)CC4)c(C)c3c2=O)cc1Cl,115.9
Cc1ccc(CNS(=O)(=O)c2cc(-c3nc(C)c(C)s3)sc2C)cc1,98.8
CC(NS(=O)(=O)c1ccc2c3c(cccc13)C(=O)N2)C1C2CC3CC(C2)CC1C3 (configuration not stated),100.8
N#CC1=C(N)OC2=C(CN(Cc3ccccc3)C/C2=C\c2cccs2)C1c1cccs1 (configuration not stated),112.2
COc1ccc(NC(=O)c2ccc(-c3nc(-c4ccccc4)no3)cc2)cc1,104.6
COc1ccc(N2C(=O)C3C(c4ccccc4)OC4(C(=O)c5ccccc5C4=O)C3C2=O)cc1OC (configuration not stated),101.3
COc1cc(C2C(C#N)=C(N)OC3=C2C(=O)CCC3)ccc1OC(=O)c1cccs1 (configuration not stated),102.2
CCOC(=O)CC(=O)CSc1nc2c(sc(=S)n2-c2cc(Cl)ccc2OC)c(=O)[nH]1,112.4
CCCNC(=O)C1CCCN(C(=O)CCc2c(C)[nH]c(C(=O)OCC)c2C)C1 (configuration not stated),101.0
CCOC(=O)c1sc2nc(SCC#N)n(CCc3ccccc3)c(=O)c2c1C,118.5
CCOC(=O)C1=C(c2ccccc2)OC(N)=C(C#N)C1c1cccc(Br)c1 (configuration not stated),123.7
Cn1c(N2CCCC(C(=O)N3CCN(c4ccccn4)CC3)C2)cc(=O)n(C)c1=O (configuration not stated),110.6
Cc1ccc(S(=O)(=O)NCc2ccc3c(c2)CCN3C(=O)c2ccc(F)cc2)cc1,101.9
O=C(O)C1C2CC3C(OC(=O)C31)C2Cl (configuration not stated),108.1
# Further records.
SMILES,GIV Gai3 FP
O=C(CN1C(=O)C2(OCCO2)c2cc([N+](=O)[O-])ccc21)c1cccc2ccccc12,107.1
Cc1[nH]c(C)c(S(=O)(=O)N2CCCC2)c1-c1nc(C2CC2)no1,107.9
Cc1nc2sccn2c(=O)c1NC(=O)c1ccc(Cl)cc1,105.0
CC(C)NC(=O)c1cn2c(n1)COCC2,100.1
Cc1noc(C)c1C1CCCN1Cc1ccc(F)cc1 (configuration not stated),102.7
CCN(CC)S(=O)(=O)c1ccc(-c2cn3ccc(C)cc3n2)cc1,102.8
Cc1cc(OCc2nc(-c3ccc(Br)cc3)no2)ccc1Cl,109.3
Cc1ccc(-c2nc3ccccc3nc2-c2ccc(C)cc2)cc1,98.8
CCOC(=O)CC(=O)CSc1nc(-c2cccnc2)cc(C)c1C#N,113.3
CCC(C)C(=O)N1c2ccc(C)cc2C(=C2SC(C(=O)OC)=C(C(=O)OC)S2)C(=S)C1(C)C (configuration not stated),105.0
CCOC(=O)C1=C(C(=O)OCC)SC2(S1)C(C(=O)OCC)=C(C(=O)OCC)SC1=C2c2cc(C)ccc2NC1(C)C,103.8
COc1ccc(CNC(=O)C2(C)Cc3ccccc3C(=O)N2C2CC2)cc1 (configuration not stated),111.8
O=C(CCC(=O)Nc1noc2ccccc12)Nc1ccc(F)cc1,99.6
Cc1ccc(Cl)cc1NC(=O)CN1C(=O)CCCc2cc(S(=O)(=O)N3CCCC3)ccc21,98.7
COc1ccc(C2C3=C(NCCN=C3c3ccccc3)C(=O)N2c2ccccc2)c(OC)c1 (configuration not stated),112.1
CCOC(=O)c1c(NC(=O)CSc2nnc(CNC(=O)c3cccc(C)c3)n2C)sc2c1CCCCC2,104.9
O=c1cc(CN(Cc2ccccc2)Cc2ccc(F)cc2)nc2sc(-c3ccccc3)nn12,114.5
Nc1nonc1-c1noc(-c2cc(Br)ccc2OCc2ccccc2Cl)n1,108.2
CCCN(CCC)CC(O)CN(c1ccc(C)cc1)S(=O)(=O)c1ccccc1 (configuration not stated),107.5
COc1ccc(NC(=O)CSc2nccc3c2ccn3Cc2ccc(F)cc2)cc1OC,101.8
O=C(c1cn(-c2cc(N3CCSCC3)ncn2)cn1)N1CCC2(CC1)OCCO2,105.9
Cn1c(SCC(=O)NCc2ccccc2Cl)nc2cc(-c3ccccc3)sc2c1=O,104.4
CCC1(C)CC(CCN(Cc2ccccc2)C(C)=O)(c2ccc(OC)cc2)CCO1 (configuration not stated),109.4
COCCCNC(=O)c1cc(-c2ccccn2)nc2ccc(S(=O)(=O)N3CCOCC3)cc12,102.6
Cc1cc(C2CCCN2C(=O)Nc2ccccc2)no1 (configuration not stated),106.2
# The results go on:
SMILES,GIV Gai3 FP
CCOC(=O)C1=C(C)N=c2s/c(=C\c3ccc(-c4cccc(C(=O)O)c4)o3)c(=O)n2C1c1cccs1 (configuration not stated),128.2
Oc1ccc2cc(-c3nc(-c4ccc(Br)cc4)cs3)c(=Nc3ccc(Br)cc3)oc2c1,127.0
O=C1CC(c2cccc(I)c2)c2ccc3ccccc3c2N1 (configuration not stated),102.3
COc1ccc(/C(O)=C2\C(=O)C(=O)N(c3nnc(C)s3)C2c2cccc(Oc3ccccc3)c2)cc1 (configuration not stated),118.1
CCOC(=O)c1c(CSc2ccc(C)cc2)n(C)c2cc(Br)c(OC(C)=O)cc12,112.8
Cc1nc(CNC(=O)[C@H]2CSCN2S(=O)(=O)c2ccc(C(C)C)cc2)cs1,99.6
O=C(Nc1cc(F)c2nc(N3CCOCC3)ccc2c1)C1CCCCC1,110.8
CCCc1oc2ccc(NS(=O)(=O)c3ccc(Br)cc3)cc2c1C(=O)OCC,101.7
CCC(Sc1nc2ccccc2[nH]1)C(=O)Nc1ccc(S(N)(=O)=O)cc1 (configuration not stated),101.7
